Assay outcomes deposited in PubChem BioAssay by several laboratories.
PrP 5UTR inh: inhibition of PrP 5' UTR reporter expression; cell-based PrP 5' UTR mRNA reporter, plate reader; inhibition, % (concentration not given with the values); actives 0.35% (n = 340,000);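 active means every replicate at 50% or more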;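 further: 0 = median of the neutral control wells; tested in H4 reporter cells; numbers are from one replicate; inactives centre near -14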
BJeLR lethal: kills HRASV12-expressing BJeLR cells | BJeLR (HRASV12) viability, CellTiter-Glo ATP luminescence, 48 h; reference of the scale not given here | inhibition, % (no concentration beside the values) | actives 0.17% (n = 300,000) | AID 1554;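 active means replicate mean above 50%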;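 further: 50 nL library stock added to about 25 µL; numbers are from one replicate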
Sa RN4220 lethal: S. aureus RN4220 growth inhibition; actives 0.33% (n = 330,000); inhibition, % (test concentration not listed); OD600, 16 h;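 active means z-score of -3 or lower and OD600 up to 0.18 on both plates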;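 further: plate controls were untreated cells for no effect and reference antibiotic for full effect; stock transfer was 100 nL into about 80 µL; one replicate is shown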
Mtb hypoxia inh: Mtb hypoxia fluorescent reporter inhibition; M. tuberculosis hypoxia-regulated fluorescent reporter, fluorescence; fluorescence inhibition, % (concentration not given with the values); actives 0.1% (n = 300,000);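 active means 35 to 45% if threefold the growth effect, above 45% if 1.5-fold the growth effect; inactive means the rest, general growth blockers included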;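 further: wells of about 50 µL received 100 nL stock; 0% = vehicle wells and 100% = reference inhibitor wells; whole bacteria with a GFP reporter of the hypoxia response; strong numbers were not always called active; many hits fall short of the cut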
ugtP null kill: growth inhibition of S. aureus ugtP deletion strain; actives 0.54% (n = 330,000); AID 1259309; growth inhibition, % (no concentration beside the values); S. aureus RN4220 ugtP deletion, OD600 growth, 16 h; some inactives read as strong as hits;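 active means z-score under -3 and OD600 up to 0.15 on both plates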;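 further: plate controls were untreated wells for no effect and antibiotic for full effect; wells of about 80 µL received 100 nL stock; the first replicate is given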
Autofluor counter: counter-screen for toxin protease inhibitors: compound fluorescence. compound autofluorescence counterscreen, microsphere flow cytometry; hits give high values. fluorescence intensity (no concentration beside the values). actives 3.1% (n = 360,000);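 active means at least 3 SD above the mean of all compounds, about 16000 in these data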;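 further: 100 nL of 1 mM stock went into each well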
Mtb hypoxia inh growth: also measured in Mtb hypoxia inh; calls as there; growth inhibition, %; measured here: M. tuberculosis growth (absorbance);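 0% = vehicle and 100% = reference antibiotic; read after six days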
The depositor's hits bear a star; · = no result given.

#	molecule	PrP 5UTR inh	BJeLR lethal	Sa RN4220 lethal	Mtb hypoxia inh	Mtb hypoxia inh growth	ugtP null kill	Autofluor counter
1	CC(Oc1ccc(Cl)cc1)C(=O)N(C)CC(=O)Nc1ccc(N2CCOCC2)cc1 (stereo unspecified)	-18	0	2.0	4	8	2	5416
2	CC(C)NC(=O)Nc1ccc2c(c1)C(=O)N(C(C)CO)CC(C)C(CN(C)S(=O)(=O)c1cccs1)O2 (stereo unspecified)	·	·	4.9	9	4	0	·
3	CC(=O)Cn1ncc(N2CCCCC2)c(Cl)c1=O	-24	-4	1.4	8	4	2	1925
4	Cn1nc(C(C)(C)C)c(NC(=O)c2ccc(F)cc2)c1C(C)(C)C	-6	6	3.5	21	5	12	·
5	CCC(C)c1ccc(NC(=S)NCc2ccccn2)cc1 (stereo unspecified)	-24	0	-1.0	-7	0	-3	4060
6	C=CCn1c(SC(CCO)C(=O)NCc2ccco2)nc2sc3c(c2c1=O)CCC3 (stereo unspecified)	-9	-6	1.2	5	4	-4	5257
7	COc1cc(/C=N/N=C2/NC(=O)C(Cc3ccccc3)S2)ccc1O (stereo unspecified)	-21	-1	·	·	·	·	2229
8	N#Cc1c(NCCO)ccc([N+](=O)[O-])c1NCCO	-12	-8	0.9	4	0	6	3952
9	COc1ccc(C(=O)CSc2ccc(-c3ccco3)nn2)cc1	-19	-11	13	11	4	-16	9138
10	CCCc1c(O)nc(SCC(=O)N2CCCCC2)[nH]c1=O	-18	-1	3.5	2	-2	12	3591
11	Cc1ccc(C)c(S(=O)(=O)N2CCN(C(=O)c3n[nH]c(=O)c4ccccc34)CC2)c1	-12	·	4.3	8	7	3	5137
12	COc1ccccc1C(C)NCC(=O)NCc1ccc(C)cc1 (stereo unspecified)	-13	15	4.8	17	2	4	3921
13	C#C[C@]1(OC(C)=O)CCC2C3CCC4=CC(=O)CCC4C3CC[C@@]21C (stereo partly specified)	·	·	11	-5	-1	5	·
14	O=C(OCc1nc(-c2ccccc2)oc1COC(=O)c1ccco1)c1ccco1	-21	-4	9.2	16	9	24	10601
15	O=C1CCC(O)CCN1C(CSc1ccccc1)Cc1ccccc1 (stereo unspecified)	·	·	5.9	7	12	-1	·
16	CC(=O)c1cc2c(C)cc(=O)oc2cc1O	-12	4	-4.9	-16	6	-8	5413
17	CC(CN1CCN(Cc2ccccc2)CC1)OC(=O)c1ccco1 (stereo unspecified)	-10	1	1.4	5	5	5	6069
18	CC(C)OCCCNc1nc2c([nH]1)c(=O)n(C)c(=O)n2C	-19	-4	1.7	1	0	5	10023
19	Cc1cc(CN2CCCCC2C(=O)Nc2ccc(Oc3cccnc3)cc2)oc1C (stereo unspecified)	-10	-10	1.9	-13	-4	5	5500
20	Cc1ccc(-c2nc3ccccc3[nH]c2=O)cc1	1	7	3.7	13	1	-11	3475
21	COc1ccc2[nH]c3c(NCCN4CCCCC4)ncnc3c2c1	-14	7	2.8	5	8	29	4482
22	Brc1nc(-c2ccccc2)nc(-c2ccccc2)c1Br	·	51*	5.9	2	8	2	·
23	COc1ccc(C(CNC(=O)c2ccc(N3CCCC3=O)cc2)N2CCCC2)cc1 (stereo unspecified)	-8	·	1.3	-1	-2	6	4920
24	CC(=O)c1ccc(S(=O)(=O)Nc2ccc(S(=O)(=O)N3CCCCC3)cc2)cc1	6	·	5.2	2	7	0	5167
25	CCCCCCCN1CC=CC(c2ccc(OC)cc2)N(Cc2ccc(F)cc2)C(=O)C1Cc1ccccc1 (stereo unspecified)	·	·	7.7	7	18	7	·

Next section; it opens with the 5 that closed the last part.
#	molecule	PrP 5UTR inh	BJeLR lethal	Sa RN4220 lethal	Mtb hypoxia inh	Mtb hypoxia inh growth	ugtP null kill	Autofluor counter
21	COc1ccc2[nH]c3c(NCCN4CCCCC4)ncnc3c2c1	-14	7	2.8	5	8	29	4482
22	Brc1nc(-c2ccccc2)nc(-c2ccccc2)c1Br	·	51*	5.9	2	8	2	·
23	COc1ccc(C(CNC(=O)c2ccc(N3CCCC3=O)cc2)N2CCCC2)cc1 (stereo unspecified)	-8	·	1.3	-1	-2	6	4920
24	CC(=O)c1ccc(S(=O)(=O)Nc2ccc(S(=O)(=O)N3CCCCC3)cc2)cc1	6	·	5.2	2	7	0	5167
25	CCCCCCCN1CC=CC(c2ccc(OC)cc2)N(Cc2ccc(F)cc2)C(=O)C1Cc1ccccc1 (stereo unspecified)	·	·	7.7	7	18	7	·
26	O=C(Nc1ccccn1)c1ccc(C(=O)c2ccccc2)cc1	-118	0	2.5	6	5	7	4466
27	Cc1ccc(OCCn2ncc3ccccc3c2=O)c(C)c1	-45	1	3.1	1	2	4	4027
28	CC12CCC(C(=O)NCCN3CCCCC3)(CC1=O)C2(C)C (stereo unspecified)	-12	0	2.7	8	4	4	11064
29	Oc1c(Cl)cc(Cl)cc1C=Nc1ccc(Br)cc1	-9	-4	-12	18	11	-2	3207
30	CCOC(=O)N1CCN(CC(=O)Nc2ccc([N+](=O)[O-])cc2C(=O)Nc2ccccc2F)CC1	-4	13	4.9	7	0	-12	1995
31	COCCCn1c(SCC(=O)NC2CCCC2)nnc1-c1cccs1	-23	-4	1.1	13	-8	14	3803
32	COc1ccccc1N1CCN(C(=O)CN(c2cc(C)cc(C)c2)S(C)(=O)=O)CC1	-28	-8	4.4	2	4	-4	12617
33	COc1ccc(-n2c(Cc3cccn3C)nnc2SCC(=O)Nc2ccccc2C)cc1	-28	-5	2.4	·	·	-5	5659
34	CCCCN1CC(=O)N2C(c3ccc(Cl)cc3)C3C(=O)N(CC)C(=O)C3[C@]2(Cc2ccccc2)C1=O (stereo partly specified)	·	·	4.8	7	10	2	·
35	Cc1ccc(C(=O)N2CCc3ccccc32)cc1C	-23	·	1.3	6	0	11	3202
36	COc1ccc(C=NNC(=S)NCc2ccccc2)cc1OC	·	·	11	11	1	38	·
37	CCOC(=O)C(CC)n1cnc2c(cnn2-c2ccc(Cl)cc2)c1=O (stereo unspecified)	-16	10	-16	5	12	-8	3221
38	Cn1c(SCC(=O)N2CCN(S(=O)(=O)c3ccccc3)CC2)nc2ccccc21	-13	-19	-1.9	-1	-1	-19	7608
39	NC(=O)NN=Cc1cn(-c2ccccc2)nc1-c1ccccc1	·	·	-6.9	14	4	-3	·
40	O=C(c1cn(CC(=O)N2CCCC2)c2ccccc12)C1CCCCC1	-10	-4	4.6	1	3	-4	4452
41	CCOc1ccc(C(=O)N2CCC3(CC2)NCCc2[nH]cnc23)cc1OCC	7	7	6.5	6	-1	11	3991
42	O=C(c1cc([N+](=O)[O-])ccc1N1CCOCC1)N1CCN(c2ccc([N+](=O)[O-])cc2)CC1	-9	6	2.7	-1	-10	10	4176
43	O=[N+]([O-])c1ccc(N2CCN(Cc3ccncc3)CC2)cc1	-11	3	1.9	3	2	4	3907
44	O=C(CCCCCN1C(=O)CCC1=O)Nc1ncn[nH]1	3	2	5.7	·	·	-2	4744
45	CCOC(=O)C1CCCN(C(=O)/C(=C/c2ccco2)NC(=O)c2ccccc2)C1 (stereo unspecified)	-33	-7	3.6	10	-2	-1	3868
46	Nc1ccc(-n2c(N)c(C(=O)NCc3ccc4c(c3)OCO4)c3nc4ccccc4nc32)cc1	3	-1	0.0	-7	6	-14	3566
47	Cc1cccn2c(=O)c(C=Nc3ccccc3)c(NCCO)nc12	-36	9	4.8	10	7	1	8398
48	COc1ccc(/C=C/C(=O)N[C@@H](C)C(=O)O)cc1	-26	0	-0.7	3	7	1	9186
49	COc1ccc(C2c3[nH]c4ccccc4c3C[C@H]3C(=O)N(c4ccccc4C(=O)N4CCC[C@@H]4C(=O)O)C(=O)N23)cc1 (stereo partly specified)	-12	·	8.0	·	·	-5	5878
50	CN(CC(=O)Nc1cccc(F)c1)CC(=O)NC(c1ccccc1)c1ccccc1	-5	·	-0.6	9	-3	12	2774
51	COc1ccc(C(=O)/C=C/c2cccnc2)c(OC)c1	-25	9	2.4	14	15	6	4265
52	Cc1cc(C(=O)N/N=C/c2ccc3c(c2)OCO3)c(C)o1	-58	8	·	·	·	·	3875
53	Cc1ccc2cccc(OCCOCCOc3ccccc3Br)c2n1	-17	3	4.7	-1	-1	-5	2420
54	CCOc1ccc(C(=O)N(CC(=O)Nc2cccc(C)c2C)CC2CCCO2)cc1OC (stereo unspecified)	-7	·	-1.6	-5	-7	-2	8504
55	C=CCOC(=O)C1=C[C@H](C2CCCCC2)[C@@H](CCCO)[C@H](OCC)O1	0	11	-9.7	5	7	-11	3988
56	CC(C)N(Cc1ccccc1)C(=S)Nc1ccc(OC(F)F)cc1	-11	3	2.7	-3	1	1	2425
57	Nc1ncc(C(=O)O)c(-c2ccccc2)n1	-41	·	1.6	-6	0	3	4055
58	O=C(CN1C(=O)c2ccccc2C1=O)NC1CCCCCC1	-20	-1	5.4	-11	-2	3	3034
59	COC(C(=O)Nc1ccnn1C1CCN(Cc2nccs2)CC1)c1ccccc1 (stereo unspecified)	-10	5	3.0	-12	-4	2	5792
60	COc1ccc(S(=O)(=O)N2CCCC2CNC(=O)C(=O)Nc2ccc(F)cc2)cc1 (stereo unspecified)	-41	3	-0.5	3	-1	16	6899
61	Cc1cc(F)ccc1S(=O)(=O)Nc1ccccc1C(=O)NC1CCN(Cc2ccccc2)CC1	-6	·	-4.0	-5	-11	-4	5161
62	O=C(NN=Cc1ccc([N+](=O)[O-])cc1)c1cc(-c2ccc3c(c2)OCO3)n[nH]1	·	·	6.5	10	-2	-3	·
63	Cc1cc(N)n(-c2ccc(C)c(C)c2)n1	-23	-2	-1.6	-7	-3	15	1985
64	CC1CCCC(=CNc2ccc(C(=O)O)cc2)C1=O (stereo unspecified)	·	·	5.0	1	3	10	·
65	CC(=O)c1ccc(S(=O)(=O)N2CCC(Oc3ccc(-n4cnnn4)cc3)CC2)cc1	-5	-5	2.4	1	1	4	5631
66	Cc1cc(C)c2c(c1)cc(C)c1nnc(SCC(=O)N3CCCc4ccccc43)n12	-12	-16	11	13	7	96*	2444
67	Cc1ccc(C(=O)Nc2ccc(S(=O)(=O)Nc3cnc4ccccc4n3)cc2)cc1	-11	5	5.5	2	22	12	5396
68	CCc1nccn1CCC(=O)N1CCc2c([nH]c3ccccc23)C1CC(C)C (stereo unspecified)	-4	2	4.5	16	5	2	6320
69	Cc1cccc(C)c1NC(=O)CN(C)C(=O)c1ccccc1C(=O)N(C)Cc1ccccc1	1	1	3.6	-11	-8	1	3823
70	COc1ccc(N(CC(=O)N/N=C/c2cc(OC)ccc2OC)S(=O)(=O)c2ccccc2)cc1	-12	8	·	·	·	·	3737
71	Cc1c(N2C(=O)c3ccccc3C2(O)c2ccccc2)c(=O)n(-c2ccccc2)n1C (stereo unspecified)	2	1	6.0	0	9	5	3624
72	CC1(C)CC(=O)C(C=NCCN2CCN(C(=O)CCl)CC2)=C(O)C1	-13	2	2.4	13	4	11	·
